# GLA inh pH 4.5 = qHTS Assay for Inhibitors of Human alpha-Galactosidase at pH 4.5; purified enzyme, 4-MU-alpha-Gal fluorescence, pH 4.5; activity change, negative = inhibition, % at 105 µM; 230,000 tested, under 10 active; AID 1467, 2008; inconclusive = small, poorly fitted or top-dose-only inhibition, or a rising curve; inactive = flat fitted curve, though single readings scatter; no compound was filed as active;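 also: 0% = full activity with enzyme and -100% = basal without enzyme; dose as in the result columns while the protocol names 77 µM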
# Target sequence (P06280 whole entry, looked up): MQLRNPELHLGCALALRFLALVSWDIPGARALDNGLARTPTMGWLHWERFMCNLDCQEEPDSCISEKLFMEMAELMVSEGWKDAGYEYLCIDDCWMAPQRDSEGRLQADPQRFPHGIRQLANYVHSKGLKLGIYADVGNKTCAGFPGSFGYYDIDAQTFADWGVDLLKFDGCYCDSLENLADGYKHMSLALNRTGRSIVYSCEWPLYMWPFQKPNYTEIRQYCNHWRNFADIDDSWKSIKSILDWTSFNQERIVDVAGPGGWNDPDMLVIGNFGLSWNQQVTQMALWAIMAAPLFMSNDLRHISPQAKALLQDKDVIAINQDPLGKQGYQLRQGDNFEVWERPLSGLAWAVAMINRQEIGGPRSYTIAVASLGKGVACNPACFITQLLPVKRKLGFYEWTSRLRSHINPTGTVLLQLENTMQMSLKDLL
# Rango complex inh = qHTS Assay for Inhibitors of Rango (Ran-regulated importin-beta cargo) - Importin beta complex formation; Importin subunit beta-1 (Homo sapiens), Q14974; Rango CFP/YFP FRET sensor + importin beta, 45 min; AID 540263, 2011; 340,000 compounds, 0.031% hits; Potency, µM (titrated, usually from 92.2 µM), inactives show top-dose inhibition of complex formation; active = rising FRET ratio curve, often small or poorly fitted; inconclusive = mostly compound fluorescence or quenching in the first reads; inactive = flat curves in all reads;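 also: potency is read from the fitted curve at half-maximal effect; 0% = DMSO wells and 100% = buffer wells lacking importin beta; nearly all actives have a fitted effect of over 15% in size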
#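 Inhibition scored from the CFP 486 nm/YFP 530 nm FRET ratio 45 min after adding 0.125 microM importin beta to 50 nM Rango biosensor preincubated 5 min with compound (room temperature, PBS with DTT, Tween-20, BSA). No-importin wells as positive control.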
# Rango release inh = qHTS Assay for Inhibitors of RanGTP induced Rango (Ran-regulated importin-beta cargo) - Importin beta complex dissociation | 340,000 compounds, 0.071% hits | Potency, µM (series often up to 46.1 µM), for inactives: at the top dose activity change, negative = inhibition | Biochemical FRET Rango-importin beta, RanGTP-induced dissociation | AID 540253, 2011; active means falling FRET ratio curve, often poorly fitted, with flat reads before Ran was added; inconclusive means other falling curves, or compound fluorescence or quenching; inactive means flat or rising ratio curve;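 also: potency is read from the fitted curve at half-maximal effect; % of control where 0% means no effect; nearly all actives have a fitted effect of over 45% in size; -100% = wells without RanGTP and RCC1; the record marks most hits as doubtful in a second field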
#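 Rango (0.1 uM)–importin beta (0.25 uM) complex; RanGTP-RCC1 trigger; 45 min RT; CFP/YFP FRET read.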
# miR-21 reporter = qHTS Assay for Modulators of miRNAs and/orActivators of miR-21. Potency, µM (titrated, usually from 38.3 µM), for inactives: at the highest dose reporter change, positive = more light. 340,000 tested, under 10 active. HeLa miR-21 FLuc reporter, luciferase, 48 h. AID 2288, 2010; active = well fitted rising curve with a large enough effect; inconclusive = small, poorly fitted or top-dose-only effect; inactive = no such curve, though single readings can be large or run the other way;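 also: % of control where 0% means no effect; miR-21 action dims this reporter so a rising signal means less miR-21 action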
#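 Compounds were titrated across several concentrations (up to approximately 40 uM) and incubated 48 hours with HeLa miR-21-FLuc reporter cells (miR-21 target sequence downstream of FLuc, endogenous miR-21). Readout was firefly luciferase luminescence after lytic detection reagent.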
# * = called active by the depositor; ? = inconclusive; nt = not tested or not shown; & = joins results of further samples.
# Preview:
No.	Structure	GLA inh pH 4.5	Rango complex inh	miR-21 reporter	Rango release inh
1	Cc1ccc(CNC(=O)CCn2c(=O)oc3ccccc32)cc1	-26	-0.3%	-3%	-14%
2	CC1Cc2ccccc2N1C(=O)c1cnc2n(c1=O)CCS2 (stereo not given)	0	0.8%	-4%	7%

# The whole of this part, from the start:
No.	Structure	GLA inh pH 4.5	Rango complex inh	miR-21 reporter	Rango release inh
1	Cc1ccc(CNC(=O)CCn2c(=O)oc3ccccc32)cc1	-26	-0.3%	-3%	-14%
2	CC1Cc2ccccc2N1C(=O)c1cnc2n(c1=O)CCS2 (stereo not given)	0	0.8%	-4%	7%
3	O=C(CSc1nc(-c2ccccc2)nc2ccccc12)Nc1nccs1	8	-2.4%	-1%	-12%
4	CC1(C)Cc2ccccc2/C(=C/C(=O)N2CCCCCC2)N1	3	?	4%	-11%
5	CC(=O)c1cccc(NC(=O)C(OC(=O)c2cccc(S(=O)(=O)N(C)c3ccccc3)c2)c2ccccc2)c1 (stereo not given)	-12	-1.7%	-11%	17%
6	COc1ccc(-c2c(C#N)c(SCC(N)=O)nc3c2CCCC3)cc1	2	6.0%	-25%	-5%
7	CSCCC(=O)N1CCC(CCC(=O)NC2CC2)CC1	nt	-1.7%	0%	0%
8	CC(=O)N1c2ccccc2C(=O)C1N1CCCCC1 (stereo not given)	-4	-1.3%	-4%	3%
9	COc1cccc(N2CCN(c3ccc4nnc(CCC(=O)Nc5ccc(F)cc5F)n4n3)CC2)c1	nt	0.9%	4%	2%
10	O=C(Oc1ccc(Br)cc1C(=S)N1CCOCC1)c1cccc([N+](=O)[O-])c1	nt	0.6%	0%	6%
11	Cc1c(/C(O)=C2/C(=O)C(=O)N(Cc3cccnc3)C2c2ccccn2)cnn1-c1ccccc1 (stereo not given)	4	-0.8%	-6%	12%
12	CC1/C(=N/O)CC(c2ccccc2)NC1c1ccccc1 (stereo not given)	5	6.9%	-6%	-22%
13	CC(C)(C)NC(=O)C1(N2C(=O)c3ccccc3C2=O)CCCC1	nt	2.7%	nt	-1%
14	CC(C)c1ccc(N2C(=O)CC(NNC(=O)c3ccccc3Cl)C2=O)cc1 (stereo not given)	4	0.1%	0%	5%
15	COc1ccc(CCNC(=O)CCC(=O)Nc2nnc(C(C)C)s2)cc1OC	5	-2.9%	-1%	-1%
16	CCOC(=O)c1nnn(CC(=O)Nc2ccccc2)c1C(=O)OCC	7	-4.2%	-5%	-13%
17	COc1ccc(C2=C/C(=C\c3ccccc3OC(C)=O)C(=O)O2)cc1	nt	?	-13%	?
18	CC(C)C1C(C#N)=C(N)Oc2n[nH]c(-c3cccs3)c21 (stereo not given)	0	7.6%	-3%	1%
19	COc1ccc(S(=O)(=O)Nc2cccc3c2O[C@H](CN(C)Cc2ccc(C(=O)O)cc2)[C@@H](C)CN([C@H](C)CO)C3=O)cc1	nt	-2.4%	nt	1%
20	CC(=O)N1c2ccc(S(=O)(=O)N3CCCC3)cc2CC1C(=O)NC(C)C (stereo not given)	nt	-1.0%	0%	-5%
21	CCC(=O)Nc1nnc(C(C)(C)C)s1	8	-0.1%	-3%	1%
22	Cc1nc(CSc2nnc(C)s2)cs1	6	-0.4%	-17%	-6%
23	COc1ccc(CNC(=O)c2ccc(N(C)S(=O)(=O)c3ccc(C)cc3)cc2)cc1	nt	?	8%	-1%
24	Cn1cnc(S(=O)(=O)NCc2cccs2)c1	1	4.3%	-1%	27%
25	COc1cccc(Cn2cc(C)cc(NC(=O)NCc3ccccc3)c2=O)c1	nt	1.6%	7%	-11%
26	COc1ccc(NC(=O)Cn2nc(Cc3cccnc3)c3ccccc3c2=O)c(OC)c1	-6	-3.5%	-3%	0%
27	COC(=O)CN1C(=O)C(O)(CC(=O)c2ccc(Br)cc2)c2ccccc21 (stereo not given)	4	1.3%	-7%	11%
28	O=C(CC(Nc1ccc(F)cc1)c1ccccc1)c1ccccc1 (stereo not given)	-21	3.9%	-3%	33%
29	CCSc1nc(-c2ccccc2)c(-c2ccccc2)n1CC(O)CO (stereo not given)	2	4.6%	1%	-5%
30	C/C(=N\Nc1ncc(Cl)cc1Cl)c1ccc(N2CCOCC2)cc1	-9	?	-54%	-13%

# Compound profiles (already shown). Values in the order: GLA inh pH 4.5, Rango complex inh, miR-21 reporter, Rango release inh
# Shown for CC(=O)N1c2ccccc2C(=O)C1N1CCCCC1 (stereo not given) = -4, -1.3%, -4%, 3%
# Shown for COc1ccc(-c2c(C#N)c(SCC(N)=O)nc3c2CCCC3)cc1 = 2, 6.0%, -25%, -5%
# Shown for COc1cccc(Cn2cc(C)cc(NC(=O)NCc3ccccc3)c2=O)c1 = nt, 1.6%, 7%, -11%
# Shown for COc1ccc(CNC(=O)c2ccc(N(C)S(=O)(=O)c3ccc(C)cc3)cc2)cc1 = nt, ?, 8%, -1%

# Next part
No.	Structure	GLA inh pH 4.5	Rango complex inh	miR-21 reporter	Rango release inh
31	Cc1ccc(S(=O)(=O)N2CCC(C(=O)N3CCc4ccccc43)CC2)cc1	nt	-0.3%	0%	-3%
32	COc1ccccc1CNC(=O)C1CCN(S(=O)(=O)c2cccc3nonc23)CC1	nt	-1.6%	-2%	8%
33	COc1cc(C(C)=O)ccc1OCC(=O)OC(C)C(=O)c1ccc(F)cc1 (stereo not given)	nt	-1.1%	nt	13%
34	COc1cccc(N2C(=O)C3C(C2=O)C2C=CC3C23CC3)c1 (stereo not given)	0	-1.6%	-16%	-4%
35	O=C(NCCC1=CCCCC1)c1cc(-c2ccncc2)nc2ccccc12	-5	4.7%	-2%	-2%
36	O=C(O)C1C2C=CC3(CN(Cc4ccco4)C(=O)C13)O2 (stereo not given)	-18	0.0%	2%	1%
37	COc1ccc(CCNC(=O)CSc2ccccn2)cc1	-7	1.7%	-8%	?
38	CCn1nc(C)c(NC(=O)c2ccc(Br)o2)c1C	-1	-2.1%	-4%	5%
39	COC(=O)C1CCN(C(=O)C2CCN(C(=O)[C@H](C)NS(=O)(=O)c3ccc(C)cc3)CC2)CC1	nt	0.3%	1%	0%
40	CNCCCc1[nH]nc(N)c1C#N	2	-0.1%	-4%	-14%
41	S=C(NCC1CCCO1)NC12CC3CC(CC(C3)C1)C2 (stereo not given)	-4	1.6%	2%	-3%
42	O=C(CN1C(=O)S/C(=C\c2ccccc2)C1=O)NC1CCS(=O)(=O)C1 (stereo not given)	nt	1.4%	4%	14%
43	O=S(=O)(Nc1ccc(Cl)cn1)c1cccs1	nt	0.1%	-11%	8%
44	Cc1ccc(OCC(=O)NNC(=O)c2cccnc2)cc1C	-11	4.9%	0%	-2%
45	CN1CCN(CCCn2cnc3c(=O)oc4ccccc4c32)CC1	-14	-3.5%	-6%	9%
46	CCOC(=O)C1=C(C)NC(C)=C(C(=O)OCC)C1C(=O)OCC(=O)N1CCCCC1CC (stereo not given)	-4	-0.2%&-1.1%	0%	7%&0%
47	COc1ccc(NC(=O)c2cc(S(=O)(=O)N3CCc4ccccc43)cn2C)c(OC)c1	nt	-0.1%	-4%	-1%
48	O=C(O)C1CCCCC1C(=O)N1CC=C(c2ccccc2)CC1 (stereo not given)	0	-0.3%	-2%	-4%
49	CCCCC(c1nnnn1CC1CCCO1)N1CCN(c2nc3ccccc3s2)CC1 (stereo not given)	1	-3.4%	-10%	29%
50	COc1ccccc1Oc1c(C)oc2cc(OC(=O)c3ccco3)ccc2c1=O	17	1.3%	1%	-14%
51	Nn1c(SCC(=O)Nc2ccccc2F)nnc1C1CCCCC1	nt	0.8%	0%	-1%
52	CSc1nc(C)c(C(=O)C[n+]2ccc(C)cc2)cc1C#N	1	-0.5%	3%	-3%
53	COc1ccc(C(=O)O/N=C(\N)c2ccc(OC)c(OC)c2)cc1	nt	-0.1%	-42%	6%
54	CCOC(=O)CNc1nc(Cl)c(C#N)s1	-1	-0.1%	-1%	11%
55	CC(C)Nc1nc(NC(C)C)nc(SCCOC(=O)Nc2ccc(Cl)cc2Cl)n1	-17	6.2%	-3%	1%
56	CC1CCCC(NCC(O)COC(c2ccc(F)cc2)c2ccc(F)cc2)C1C (stereo not given)	-20	3.9%	?	5%
57	Cc1cc(C)cc(-n2ncc3c2CCCC3NC(=O)CN2CCCCC2=O)c1 (stereo not given)	nt	-1.0%	nt	1%
58	O=C(NCc1ccco1)C1Cc2ccccc2CN1S(=O)(=O)c1ccccc1F (stereo not given)	nt	?	nt	1%
59	COc1ccc(CN(C)CC(=O)c2c(N)n(Cc3ccccc3)c(=O)n(C)c2=O)c(OC)c1	-2	-0.8%	1%	3%
60	C[C@H](NC(=O)c1nc[nH]c1C(=O)N[C@@H](Cc1ccccc1)C(=O)OC(C)(C)C)c1ccccc1	-2	0.8%	14%	0%
61	CC(C)(C)c1ccc(C(=O)N/N=C/c2ccccn2)cc1	nt	-2.9%	-24%	2%
62	Cc1nnc(SC(C)C(=O)N2CCc3ccccc32)s1 (stereo not given)	2	0.4%	-9%	15%
63	Cc1cccc(OCC(=O)NC(=S)Nc2ccccc2N2CCOCC2)c1	-3	2.5%	-4%	-26%
64	COC(=O)c1ccc(CN2CCC(Oc3cccc(C(=O)N4CCOCC4)c3)CC2)cc1	nt	4.0%	-15%	?
65	COc1ccc(NC(=O)c2c(C(F)(F)F)nn(C)c2SCc2ccccc2)cc1	-3	-4.4%	-12%	12%
66	O=C(c1cc[n+]([O-])cc1)N1CCc2c([nH]c3ccccc23)C1c1ccccc1Cl (stereo not given)	-6	-4.7%	-3%	-4%
67	CC(C)=CC(=O)OCC(=O)Nc1ccc(Cl)cc1	8	0.9%	-2%	19%
68	CCCOc1ccc(CC(=O)NCc2ccco2)cc1OC	0	0.9%	0%	1%
69	CCCN1C(=O)C(=O)N(CC(=O)c2cc(C)n(C3CC3)c2C)C1=O	nt	-0.5%	nt	-6%
70	CCN(CC)C(=O)c1[nH]cnc1C(=O)N[C@@H](Cc1ccccc1)C(=O)OCc1ccccc1	-5	-0.1%	-1%	-11%
71	Cn1cc(S(=O)(=O)N2CCN(c3cccc(Cl)c3)CC2)c(=O)n(C)c1=O	-9	-2.3%	-4%	16%
72	Cc1ccc(S(=O)(=O)N2CCCC(C(=O)NCC3COCCO3)C2)cc1 (stereo not given)	4	-2.3%	-2%	0%
73	CCc1cccc(NC(=O)CSCc2cc(=O)[nH][nH]2)c1	7	-4.2%	-7%	17%
74	Cc1cc2oc(=O)cc(C)c2cc1NC(=O)CCC(=O)O	8	-0.7%	1%	-1%
75	Cc1c(C(=O)N2CCCCCC2)c(S(=O)(=O)Nc2ccc(F)cc2)c(C)n1C	nt	-2.1%	-4%	18%
76	CC(C)N1C(=O)c2ccccc2N(Cc2ccccc2)S1(=O)=O	2	-0.4%	-12%	1%
77	CC(NC(=O)c1ccc(Br)cc1Br)c1ccccc1 (stereo not given)	-1	-0.6%	-14%	-12%
78	CC1=C(C)C(=O)N(c2ccc(C(=O)O)cc2)C1=O	1	6.3%	-5%	0%
79	CCCCN(C(=O)/C=C/c1ccccc1)C1CCS(=O)(=O)C1 (stereo not given)	nt	-0.3%	nt	10%
80	CCOC(=O)/C(=N\Nc1ncnc2ccccc12)c1ccc(OC)cc1	nt	-0.9%	-11%	-18%
81	O=C(Nc1ccc(F)c(F)c1)c1ccco1	3	0.2%	-57%	0%
82	Cc1ccc(N(C(=O)CNC(=O)c2ccco2)C(C(=O)NC2CCCC2)c2ccncc2)cc1C (stereo not given)	nt	2.2%	1%	-21%
83	Cc1ccc(N=Nc2c(=O)[nH]n3c(=O)cc(C)[nH]c23)cc1	0	1.6%	-25%	0%
84	C/C=C(\C)C(=O)OC(C)(C)[C@@H]1Cc2cc3ccc(=O)oc3cc2O1	nt	-4.7%	nt	-13%

# Screening data (PubChem BioAssay)

# Some of the compounds tested (hit frequency here may not be typical).
